# Cruzain Triton: qHTS Assay for Promiscuous and Specific Inhibitors of Cruzain (with detergent) | Cruzipain (Trypanosoma cruzi), P25779 | AID 1478, 2009 | Potency, µM, without a hit: max response, negative = inhibition, most hits filed as inhibitors | 0.43% of 200,000 active | purified cruzain, Z-FR-AMC fluorescence, 0.01% Triton;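 note: plate controls were neutral wells for no effect and buffer without enzyme for full effect; nearly all actives have a fitted effect of over 40% in size; top concentration of the series not given in the record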
# Target sequence (P25779 123-467 limits assumed): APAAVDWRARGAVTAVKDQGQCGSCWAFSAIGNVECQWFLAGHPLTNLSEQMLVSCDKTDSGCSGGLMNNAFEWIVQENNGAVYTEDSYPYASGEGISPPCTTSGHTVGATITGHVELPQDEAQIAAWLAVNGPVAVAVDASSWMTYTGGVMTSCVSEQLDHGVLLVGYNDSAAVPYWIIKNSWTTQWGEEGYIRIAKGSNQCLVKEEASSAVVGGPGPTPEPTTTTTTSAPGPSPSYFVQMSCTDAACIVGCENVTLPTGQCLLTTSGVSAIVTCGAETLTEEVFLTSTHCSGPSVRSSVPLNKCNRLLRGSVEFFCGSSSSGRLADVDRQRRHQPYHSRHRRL
#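 Cruzain (1.5 nM) preincubated 15 min at RT with compound in 100 mM sodium acetate pH 5.5, 5 mM DTT, 0.01% Triton X-100. Reaction started with 2 uM Z-FR-AMC; AMC fluorescence (ex 360/em 450 nm) change over 60 s gave rate.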
# NS1 inh: qHTS Assay for Inhibitors of Influenza NS1 Protein Function. S. cerevisiae slowed by influenza A NS1, growth recovery by OD600. Potency, µM (titrated, usually from 46.1 µM), inactives show at the top dose activity, positive = more growth. 0.4% of 270,000 active. AID 2326, 2010; active means well fitted rising curve with a large enough effect; inconclusive means small, poorly fitted or top-dose-only effect; inactive means no such curve, though single readings can be large or run the other way; note: nearly all actives have a fitted effect of over 50% in size
#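 S. cerevisiae expressing influenza A NS1, grown in glucose, washed, then diluted 1:100 into pH 6.0 -URA galactose medium with 23 nl compound. Growth recovery read as OD600; NS1-free strain serves as control.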
# StopGo reporter: High Throughput Screening for Foot and Mouth Disease Virus Antivirals | human cells with a luciferase reporter of 2A StopGo recoding; control for the full effect not named in the record | Potency, µM (titrated, usually from 57.9 µM), for inactives: at the top dose signal change, negative = less light | 1.2% of 410,000 active | AID 1159524, 2015; active = well fitted falling curve with a large enough effect; inconclusive = small, poorly fitted or top-dose-only effect; inactive = no such curve, though single readings can be large or run the other way; tested in HEK293T cells; note: % is set by controls: 0 for no effect and ±100 for the full control effect; nearly all actives have a fitted effect of over 45% in size; luciferase light after 4 h
# Marburg entry inh: qHTS for inhibitors of binding or entry into cells for Marburg Virus; Potency, µM (series often up to 37.8 µM), without a hit: top-dose activity change, negative = inhibition, hits mostly inhibitors; Marburg virus pseudotyped entry inhibition, cell reporter; control for the full effect not named in the record; about a third of the inactives were read at about 46 µM; AID 540276, 2011; 1.8% of 300,000 active; active = well fitted inhibition curve with a large enough effect; inconclusive = small, poorly fitted or top-dose-only effect, or effect the other way; inactive = flat fitted curve, though single readings scatter; tested in HEK293 cells; about a fifth of its hits are not listed in these tables; note: % is set by controls: 0 for no effect and ±100 for the full control effect; luciferase read-out
# RE007 growth inh: qHTS Assay for Inhibitors of the HIV-1 protein Vpr | S. pombe RE007 Vpr strain, BacTiter-Glo ATP luminescence, 24 h; control for the full effect not named in the record | Potency, µM (doses to about 92.2 µM), without a hit: top-dose activity change, negative = less growth | 0.21% of 360,000 active; active = well fitted falling curve with a large enough effect; inconclusive = small, poorly fitted or top-dose-only effect; inactive = no such curve, though single readings can be large or run the other way;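 note: % is set by controls: 0 for no effect and ±100 for the full control effect; nearly all actives have a fitted effect of over 50% in size; the assay follows cell death caused by Vpr and the record does not say whether a fall means rescue or toxicity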
#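 Fission yeast RE007 carrying one integrated HIV-1 vpr copy, seeded at OD 0.01 in PMG+AL medium with 23 nL pinned compound. Grown 24 h at 30 degrees; viability read by BacTiter-Glo luminescence after 5 min.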
# LASV entry inh: qHTS for Inhibitors of binding or entry into cells for Lassa Virus | 1.2% of 300,000 active | Lassa virus pseudotype entry inhibition, cell reporter; control for the full effect not named in the record | Potency, µM (highest dose often 37.9 µM), inactives show at the top dose activity change, negative = inhibition, actives largely listed as inhibitors | AID 540256, 2011; active means well fitted inhibition curve with a large enough effect; inconclusive means small, poorly fitted or top-dose-only effect, or effect the other way; inactive means flat fitted curve, though single readings scatter; tested in HEK293 cells; note: % is set by controls: 0 for no effect and ±100 for the full control effect; nearly all actives have a fitted effect of over 50% in size; luciferase read-out
# Cruzain noTriton: qHTS Assay for Promiscuous and Specific Inhibitors of Cruzain (without detergent); 2.3% of 200,000 active; Cruzipain (Trypanosoma cruzi), P25779; purified cruzain, Z-FR-AMC fluorescence, no detergent; Potency, µM, for the others: max response, negative = inhibition, usual class: inhibitors;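 note: plate controls were enzyme without inhibitor for no effect and buffer without enzyme for full effect; nearly all actives have a fitted effect of over 40% in size; top concentration of the series not given in the record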
#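 Detergent-free condition (0.00005% Triton X-100) in acetate buffer pH 5.5 with DTT. 1.5 nM enzyme and compound were pre-mixed 15 min, then 2 uM Z-FR-AMC substrate added; reaction progress from fluorescence change between first and third reads (60 s).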
# SARS PLP yeast: qHTS of Yeast-based Assay for SARS-CoV PLP | S. cerevisiae expressing SARS-CoV PLpro, growth rescue; control for the full effect not named in the record | Potency, µM (top dose mostly 32.9 µM), for inactives: at the top dose activity, positive = growth rescue | AID 485353, 2010 | 0.19% of 330,000 active; active means well fitted rising curve with a large enough effect; inconclusive means small, poorly fitted or top-dose-only effect; inactive means no such curve, though single readings can be large or run the other way; note: 0% is about no effect; nearly all actives have a fitted effect of over 55% in size; growth read by luminescence after 48 h
# * = called active by the depositor; u = inconclusive; x = not tested or not shown; [ ] = another dose, or the depositor's remark. Unless noted, calls come from the whole dose curve; as a rule, active = well fitted curve in the direction sought with a large enough effect; inconclusive = small, poorly fitted or top-dose-only effect, or another doubt; inactive = no such curve, though single readings can be large; an effect the other way counts as inactive or inconclusive. Potency is the fitted concentration of half-maximal effect.
compound,Cruzain Triton,NS1 inh,StopGo reporter,Marburg entry inh,RE007 growth inh,LASV entry inh,Cruzain noTriton,SARS PLP yeast
COc1ccc2oc(-c3cccc(NC(=O)c4ccc(C#N)cc4F)c3)nc2c1,-0.1%,x,0%,-1%[46.1 µM],x,u,5%,x
CCOc1ccccc1CN1CCNC(=O)C1CC(=O)NCCN1CCOC1=O (stereo not drawn),x,-5%,2%,11%[46.1 µM],-1%,7%[46.1 µM],x,-1%
N#Cc1c(Cl)c(Cl)c2nnc(-c3ccc(Br)cc3)n2c1Cl,-4.8%,-6%,x,x,x,x,-2%,6%
Cc1ccc(NC(=O)CN2C(=O)COc3ccc(S(=O)(=O)N4CCCCC4)cc32)cc1Cl,-7.6%,x,-14%,x,x,9%[46.1 µM],-4%,x
CCCC(C)c1nc(C(N)=O)c2[nH]c(=O)n(-c3ccc(OC)cc3OC)c2n1 (stereo not drawn),x,13%,-19%,x,-3%,x,x,1%
CC(C)(C)C(=O)CN1C(=O)NC(C)(Cc2ccc3c(c2)OCO3)C1=O (stereo not drawn),x,0%,-1%,u,8%,u,x,13%
CN(C=O)CP(=O)(O)CN1CCCCC1,1.0%,4%,x,-6%,x,x,2%,3%
O=S(=O)(c1ccc(Cl)cc1)N1CCCc2ccccc21,x,-54%,-30%,x,-4%,x,x,-7%
CC(=O)N1CCSc2ccc(S(=O)(=O)Nc3ccccc3C)cc21,x,0%,-4%,12%[46.1 µM],14%,u,x,1%
CCOC(=O)C1=C(O)C(=O)N(CCCn2ccnc2)C1c1ccc(C)cc1 (stereo not drawn),x,1%,-11%,-8%[46.1 µM],1%,6%,x,1%
O=C(Cc1ccc(F)cc1)N1CCN=C1SCc1cccc([N+](=O)[O-])c1,x,x,1%,3%[46.1 µM],9%,-4%,x,-3%
COC(=O)c1cc(F)c(-n2cncn2)c(F)c1,-1.5%,2%,-5%,9%,-12%,-2%,-6%,-8%
COc1ccc(NC(=O)C2CCC(=O)N2S(=O)(=O)c2ccc(C)cc2)cc1Cl (stereo not drawn),x,-3%,58%[activator],-8%,-20%,u,x,2%
CCCCn1c2ccc(F)cc2c2nnc(SCCN3CCOCC3)nc21,x,1%,-28%,u,1%,-15%,x,-1%
CSc1ccc(S(=O)(=O)Nc2ccccc2C(=O)N2CCOCC2)cc1,x,5%,-7%,2%,-7%,0%,x,-7%
COc1ccccc1N1CCN(c2ncnc3c2nc2n3CCCC2)CC1,0.0%,x,u,-22%[46.1 µM],x,-22%[46.1 µM],u,x
Oc1oc(-c2ccccc2)nc1C=Nc1cccc2ccccc12,-5.4%,-7%,x,-27%,10%,u,u,-15%
CCNC(=O)N1C(CC(=O)OCC)C(=O)NC2CCCCC21 (stereo not drawn),3.3%,-34%,-21%,0%,-11%,2%,-12%,11%
CCn1c(=O)cc(SCC(=O)Nc2cc(Cl)ccc2OC)c2ccccc21,-2.0%,x,u,-11%[46.1 µM],x,-17%[46.1 µM],u,x
CNC(=O)CSc1nnc(C(C)C)n1C,x,1%,0%,-1%[46.1 µM],-2%,1%,x,0%

# 6 consecutive entries out of the list so far, quoted:
compound,Cruzain Triton,NS1 inh,StopGo reporter,Marburg entry inh,RE007 growth inh,LASV entry inh,Cruzain noTriton,SARS PLP yeast
COc1ccc2oc(-c3cccc(NC(=O)c4ccc(C#N)cc4F)c3)nc2c1,-0.1%,x,0%,-1%[46.1 µM],x,u,5%,x
CCOc1ccccc1CN1CCNC(=O)C1CC(=O)NCCN1CCOC1=O (stereo not drawn),x,-5%,2%,11%[46.1 µM],-1%,7%[46.1 µM],x,-1%
N#Cc1c(Cl)c(Cl)c2nnc(-c3ccc(Br)cc3)n2c1Cl,-4.8%,-6%,x,x,x,x,-2%,6%
Cc1ccc(NC(=O)CN2C(=O)COc3ccc(S(=O)(=O)N4CCCCC4)cc32)cc1Cl,-7.6%,x,-14%,x,x,9%[46.1 µM],-4%,x
CCCC(C)c1nc(C(N)=O)c2[nH]c(=O)n(-c3ccc(OC)cc3OC)c2n1 (stereo not drawn),x,13%,-19%,x,-3%,x,x,1%
CC(C)(C)C(=O)CN1C(=O)NC(C)(Cc2ccc3c(c2)OCO3)C1=O (stereo not drawn),x,0%,-1%,u,8%,u,x,13%

# More entries.
compound,Cruzain Triton,NS1 inh,StopGo reporter,Marburg entry inh,RE007 growth inh,LASV entry inh,Cruzain noTriton,SARS PLP yeast
O=C(/C=C/c1ccc(F)cc1)N1CCN(c2ccccn2)CC1,-2.3%,-5%,12%,19%,5%,4%,-1%,8%
N#Cc1c(NC(=O)CSc2nc(N)cc(=O)[nH]2)sc2c1CCCCCC2,-5.7%,-15%,x,u,7%,-4%,-27%,8%
O=C(Nc1ccc(F)cc1F)c1ccc(-n2cnnc2)cc1,1.0%,x,-10%,x,x,8%[46.1 µM],-2%,x
Cc1ccc(NC(=O)CN(C)S(=O)(=O)c2cccc3cccnc23)cc1,0.6%,-1%,13%,x,-2%,x,-11%,2%
CC(C)OC(=O)c1c(N)n(CCCN2CCOCC2)c2nc3ccccc3nc12,-19%,-7%,3%,-13%,3%,5%,u,2%
Cc1ccc(N2CC(C(=O)N3CCC4(CC3)CC(=O)c3ccccc3O4)CC2=O)cc1C (stereo not drawn),x,x,-26%,-14%,15%,u,x,2%
COC(=O)c1cccc(NC(=O)CN2CCc3ccccc3C2)c1,x,-4%,-10%,x,-11%,x,x,11%
COc1ccccc1CN1C(=NC(=O)CCC2CCCC2)SC2CS(=O)(=O)CC21 (stereo not drawn),x,0%,-20%,x,1%,x,x,0%
COc1ccc(CNCC(O)(c2ccc(Cl)cc2)c2ccc(Cl)cc2)cc1,0.8%,-17%,-17%,u,-11%,u,1%,-8%
COc1ccc(-n2nc3c(c2NC(=O)C24CC5CC(CC(C5)C2)C4)CS(=O)C3)cc1 (stereo not drawn),0.9%,-9%,-11%,x,-3%,x,-3%,7%
CCOC(=O)C1C(=O)OC2(CCOC(C)(C)C2)C1C(=O)OCC (stereo not drawn),-0.4%,7%,-8%,16%,-2%,6%,17%,-3%
Cc1nc(-c2ccc(NC(=O)c3ccccc3C)cc2)cs1,x,-37%,-5%,u,-3%,u,x,-3%
O=C(CCN1CCN(CCO)CC1)Nc1cccc(Br)c1,x,1%,-5%,1%[46.1 µM],-1%,u,x,0%
Cc1ccccc1CN1CCN(CCCc2ccccc2)C(CCO)C1 (stereo not drawn),x,11%,-9%,u,21%,-16%[46.1 µM],x,-9%
C[C@]12C(=O)N(c3cccc(F)c3)C(=O)N1[C@@H]1c3ccccc3OC[C@@H]1[C@H]2c1ccccc1,x,-7%,-6%,x,-6%,x,x,-2%
CCCOc1ccc(/C=N/Nc2ccccc2[N+](=O)[O-])c(O)c1,-5.9%,-5%,11µM*,4.5µM*,-16%,2.8µM*,10µM*,-12%
CC1(C)Cc2c(sc3c2c(=N)n(Cc2ccco2)c(=O)n3Cc2ccc(F)cc2)CO1,1.3%,-33%,-21%,u,35%,7.1µM*,13%,-13%
CSc1ccc(CN(C)C(=O)c2ccc(S(=O)(=O)Nc3ccccc3)cc2)cc1,x,x,u,u,-7%,1%[46.1 µM],x,-2%
COC(=O)C1=C(C)Nc2nc3ccccc3n2C1c1ccccc1F (stereo not drawn),x,-4%,6%,u,0%,-3%[46.1 µM],x,0%
CCCn1nc(NC(=O)CC)c2cc3cccc(C)c3nc21,x,-1%,-2%,x,12%,x,x,-1%
CC1CN(Cc2cc(=O)oc3cc(O)c(Cl)cc23)CC(C)O1 (stereo not drawn),x,-14%,-8%,x,3%,x,x,-3%
COC(=O)c1cc(NC(=O)CN2CCC(C(N)=O)(N3CCCCC3)CC2)cc(C(=O)OC)c1,11%,-14%,11%,2%,2%,8%,9%,2%
Cc1ccc(C)c(S(=O)(=O)c2c(C)cc(C)nc2Cl)c1,x,-11%,-1%,3%[46.1 µM],1%,u,x,1%
C[C@H](NC(=O)[C@@H]1CCC(=O)N1Cc1ccco1)c1ccccc1,x,7%,0%,x,21%,x,x,1%
COc1ccc(CNCCC(c2ccc(OC)cc2)c2ccccc2OC)cc1 (stereo not drawn),x,1%,-6%,u,7%,-15%[46.1 µM],x,-2%
COc1ccc(Nc2ncnc3sc(-c4ccccc4)cc23)c(OC)c1,x,6%,-11%,x,-7%,x,x,-2%
O=C(Nc1nnc(C2CC(=O)N(c3ccc(Cl)cc3)C2)s1)c1ccco1 (stereo not drawn),0.0%,x,-23%,-3%[46.1 µM],x,-3%[46.1 µM],-10%,x
CCN1CCN(c2nc3c(c(=O)[nH]c(=O)n3C)n2CCSc2nc3ccccc3s2)CC1,2.1%,9%,-18%,5%,-8%,x,1%,u
COc1ccc(CCNC(=O)C2CCN(C(=O)c3ccc(Cl)cc3)CC2)cc1OC,x,-14%,-16%,x,7%,x,x,1%
CCOc1ccc(S(=O)(=O)N(CC(=O)N/N=C/c2ccc(-c3ccc([N+](=O)[O-])cc3)o2)c2ccccc2)cc1,0.3%,-12%,-2%,u,16%,u,u,7%
CC(C)NCC(O)COc1ccc2c(c1)CCC2 (stereo not drawn),-1.9%,-8%,-7%,u,-25%,u,13%,9%
COC(=O)c1[nH]c(C)c(/C(O)=C2\C(=O)C(=O)N(CCN3CCOCC3)C2c2ccccc2OC)c1C (stereo not drawn),-8.0%,-6%,0%,14%,-9%,1%,-14%,-1%
C/C(CC(=O)Nc1ccc2c(c1)OCCO2)=N\NC(=O)COc1ccc(C)cc1Br,x,-5%,17%,4%[46.1 µM],-8%,5%[46.1 µM],x,-3%

# Assay outcomes from PubChem.

# Rows were taken by chance (roughly 4.8% active in at least one column).
